Assay outcomes: PubChem BioAssay, several laboratories
AF4-AF9 inh – MLL-AF4/AF9 protein interaction inhibition; P42568; AlphaScreen, biotin-AF4 peptide binding to FLAG-AF9; inhibition, % at 10 µM; 350,000 tested, 0.47% active;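 active = every replicate reaching a set inhibition limit, whatever the replicate mean, cut at about 25% in these data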;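 note: 0% = plate neutral control median and 100% = total signal loss; the record names both 10 and 1 µM as test concentration; the first replicate is given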
UCH37 DUB inh – human UCH37 deubiquitinating enzyme inhibition; Q9Y5K5; purified proteasome/UCH37, Ub-AMC cleavage fluorescence; inhibition, % (no concentration beside the values); 330,000 tested, 0.33% active; AID 588478;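 active = mean of two replicates above 20%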;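 note: 0% = compound-free wells with enzyme and 100% = wells lacking proteasome; stock transfer was 100 nL into about 20 µL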
Target sequence (Q9Y5K5 whole entry, looked up): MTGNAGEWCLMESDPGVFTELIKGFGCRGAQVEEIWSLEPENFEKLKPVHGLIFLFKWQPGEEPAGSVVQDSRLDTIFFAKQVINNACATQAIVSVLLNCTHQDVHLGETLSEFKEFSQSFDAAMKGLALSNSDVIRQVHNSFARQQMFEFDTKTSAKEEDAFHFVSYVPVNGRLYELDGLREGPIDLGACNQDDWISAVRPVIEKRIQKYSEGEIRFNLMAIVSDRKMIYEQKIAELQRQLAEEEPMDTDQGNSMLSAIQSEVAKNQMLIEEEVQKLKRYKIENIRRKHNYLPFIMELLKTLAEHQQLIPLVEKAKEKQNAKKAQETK
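Schedule: 30 min plus 25 min, room temperature / Material: human UCH37 within purified proteasomes / Technique: AMC fluorescence intensity at 355/460 nm / Buffer or medium: pH 7.4 Tris-HCl (50 mM) with ovalbumin, ATP-MgCl2, DTT / Controls: wells without proteasome as full block, compound-free enzyme plus substrate as uninhibited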
Bfl-1 A1 inh – inhibitors of the anti-apoptotic protein A1, read as caspase activation; MEF A1-2A-BIM cells, Caspase-Glo 3/7 luminescence, 3 h; percent of clofoctol response, vehicle zero; caspase activation, % (test concentration not listed); 330,000 tested, 0.066% active;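 active = over half of replicate activation scores above 10%, or exactly half above 10 with the replicate mean above 10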;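 note: wells of about 30 µL received 50 nL stock; many hits fall short of the cut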
Ecoli growth – inhibitors of Escherichia coli growth. OD600, 23 h; hits give low values. OD600 absorbance (no concentration beside the values). 330,000 tested, 0.21% active;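 active = OD600 absorbance below the run mean of sample wells minus 3.6 SD, in any replicate, cut at about 0.56 in these data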;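 note: stock transfer was 300 nL into about 60 µL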
Beta apoptosis – beta cell apoptosis inhibition. INS-1E cytokine-induced death, ATP luminescence, 48 h; percent of positive-control rescue, neutral wells zero. protection from apoptosis, % (concentration not given with the values). AID 435005. 300,000 tested, 0.8% active;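 active = all replicates at 75% or more, or half of them and the mean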;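 note: 0% = cytokine-treated negative control wells and 100% = positive control rescue; higher means more ATP so stronger rescue from cytokine killing; wells of about 40 µL received 100 nL stock; the first replicate is given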
FGF22 binding – FGF22 (human) thermal shift binding; Q9HCT0; recombinant FGF22 thermal shift, SYPRO orange fluorescence; percent of sucrose octasulfate shift, DMSO zero; calls only at 9.99 µM; AID 651658; 340,000 tested, 1.5% active;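 active = melting point raised past a set limit in the mean and every replicate; three in four hits are not shown here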
Target sequence (Q9HCT0 whole entry, looked up): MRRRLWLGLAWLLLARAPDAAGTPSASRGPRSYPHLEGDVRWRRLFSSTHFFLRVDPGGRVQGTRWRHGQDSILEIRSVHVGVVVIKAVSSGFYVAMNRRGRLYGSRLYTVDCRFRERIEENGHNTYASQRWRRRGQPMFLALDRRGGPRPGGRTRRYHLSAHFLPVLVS
T cruzi repl – T. cruzi replication inhibition; T. cruzi beta-gal in NIH3T3, luminescence, 90 h; inhibition, % (test concentration not listed); 300,000 tested, 1.4% active; AID 1885;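 active = mean inhibition across valid replicates above about 55%, limit read from the data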;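 note: signal also drops with host cell toxicity which is not excluded here; 0% = plate median of DMSO wells and 100% = zero luminescence signal; higher percent means less beta-gal luminescence so fewer parasites; stock transfer was 50 nL into about 50 µL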
Ecoli rRNA inh – inhibits bacterial ribosomal RNA function over humanized ribosomes; E. coli WT GFP vs humanized-ribosome RFP mutants, fluorescence, 24 h; hits give low values; DMSO median 0, no signal -100; GFP signal change (wild-type ribosome), % (concentration not given with the values); AID 720706; 350,000 tested, 1.6% active;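 active = significant combined selectivity score with lowered wild-type GFP, culture density cut under 30%, mutant RFP and density less affected; inactive = any of these conditions unmet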; note: one replicate is shown; some compounds called inactive have numbers as strong as hits
Ecoli rRNA inh OD600 – also measured in Ecoli rRNA inh; calls as there; OD600 change, %; measured here: OD600 growth;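 optical density of the mix in the first replicate; 0 = DMSO median and -100 = no signal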
Ecoli rRNA inh RFP – recorded beside Ecoli rRNA inh, whose call it bears; RFP signal change, %; measured here: RFP humanized mutant strains;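 first replicate; 0 = DMSO median and -100 = no signal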
* marks the source's active call; other numbers are inactive results; i = inactive; . = no result given; & = joins results of further samples.

A first look (2 entries):
#1 CCOc1ccc(NC(=O)CN(C)C(=O)C2CC(=O)N(c3ccc4c(c3)OCCO4)C2)cc1OCC (stereo not given)
#2 O=S(=O)(c1ccc(SCCO)nc1)N1CCCC1
Compound | 1 | 2
AF4-AF9 inh | -5.6 | .
UCH37 DUB inh | -0.6 | 0.8
Bfl-1 A1 inh | 0.3 | -0.4
Ecoli growth | 0.633 | 0.697
Beta apoptosis | -1.4 | 2.0
FGF22 binding | i | .
T cruzi repl | -13.1 | -6.3
Ecoli rRNA inh | 3.5 | .
Ecoli rRNA inh OD600 | 4.0 | .
Ecoli rRNA inh RFP | 0.2 | .

The whole of this part, from the first entry:
#1 CCOc1ccc(NC(=O)CN(C)C(=O)C2CC(=O)N(c3ccc4c(c3)OCCO4)C2)cc1OCC (stereo not given)
#2 O=S(=O)(c1ccc(SCCO)nc1)N1CCCC1
#3 CC(=O)c1cc2c(cc1NC(=O)CCCC(=O)O)OCO2
#4 C=CCNC(=O)CSc1nnc(-c2ccc(S(=O)(=O)N3CCCC3)cc2)n1C
#5 O=C(COc1ccccc1[N+](=O)[O-])N(C1CCCCC1)C1CCS(=O)(=O)C1 (stereo not given)
#6 Cc1cc(=O)[nH]c(N/N=C/c2cn(CCC#N)nc2-c2ccccc2)n1
Compound | 1 | 2 | 3 | 4 | 5 | 6
AF4-AF9 inh | -5.6 | . | . | 0.1 | 5.0 | -0.1
UCH37 DUB inh | -0.6 | 0.8 | -1.1 | 4.8 | 2.3 | .
Bfl-1 A1 inh | 0.3 | -0.4 | -0.1 | 0.0 | 1.4 | 1.3
Ecoli growth | 0.633 | 0.697 | 0.658 | 0.671 | 0.695 | .
Beta apoptosis | -1.4 | 2.0 | 0.4 | 1.2 | -3.5 | -4.8
FGF22 binding | i | . | . | i | i | i
T cruzi repl | -13.1 | -6.3 | -11.1 | 0.3 | 4.6 | 1.5
Ecoli rRNA inh | 3.5 | . | . | 6.5 | 2.9 | 6.5
Ecoli rRNA inh OD600 | 4.0 | . | . | 14.4 | 11.7 | 4.4
Ecoli rRNA inh RFP | 0.2 | . | . | -2.2 | -1.4 | -6.1

#7 CN1CCN(S(=O)(=O)c2ccc(Nc3cccc(Cl)c3)c([N+](=O)[O-])c2)CC1
#8 S=C1NC2(CCCCCC2)N=C1c1ccccc1
#9 O=C(Nc1nccs1)c1ccc([N+](=O)[O-])cc1
#10 Cn1c(N2CCN(C(c3ccccc3)c3ccccc3)CC2)nc2ccccc21
#11 CCCCNC(=O)O[C@@H]1C[C@H]2CCCC(=O)N3CC[C@@H](C1)[C@@H]23
#12 COc1ccc2[nH]c3c(c2c1)CCN1C(=O)C(CC(=O)NC(C)(C)C)C[C@H](C(=O)N2CCOCC2)[C@@]31CCC1CCCC1 (stereo not given in full)
Compound | 7 | 8 | 9 | 10 | 11 | 12
AF4-AF9 inh | 8.8 | 3.4 | -1.5 | 0.8 | 0.0 | 4.1
UCH37 DUB inh | 2.3 | 2.1 | 4.1 | 2.6 | -2.6 | -0.8
Bfl-1 A1 inh | 0.6 | 0.0 | 0.1 | 0.4 | 0.8 | .
Ecoli growth | 0.642 | 0.681 | 0.699 | 0.707 | . | 0.698
Beta apoptosis | -3.5 | 5.0 | -3.2 | -2.2 | 1.1 | .
FGF22 binding | i | i | i | i | i | i
T cruzi repl | . | -15.4 | -2.0 | 48.2 | -0.4 | .
Ecoli rRNA inh | . | -4.5 | 8.9 | -26.2* | 9.0 | -9.5
Ecoli rRNA inh OD600 | . | -5.2 | 7.2 | -19.5* | 6.6 | -7.0
Ecoli rRNA inh RFP | . | 1.2 | 2.5 | -4.9* | -0.7 | -4.1

#13 CC(=O)CC1=NC(C)(C)Cc2ccccc21
#14 COc1ccc(N(C(=O)c2ccco2)S(=O)(=O)c2ccccc2)cc1
#15 CCOC(=O)Cc1nnc(NC(=O)C23CC4CC(CC(C4)C2)C3)s1
#16 O=C(COc1ccc(Cl)cc1)Nc1cccc(-c2ccc3nncn3n2)c1
#17 CC(=O)Cc1nsc(NC(=O)c2ccc(-c3ccc(F)cc3)o2)n1
#18 C/C(=N\Nc1nc(C(=O)O)cs1)c1ccccc1
Compound | 13 | 14 | 15 | 16 | 17 | 18
AF4-AF9 inh | -0.1 | . | -3.4 | -29.6 | -2.2 | -0.2
UCH37 DUB inh | 7.4 | 1.1 | 0.4 | 2.2 | -62.7 | .
Bfl-1 A1 inh | 0.5 | 0.4 | 0.3 | 0.5 | -1.0 | 0.4
Ecoli growth | 0.706 | 0.745 | 0.638 | 0.683 | 0.688 | .
Beta apoptosis | -2.2 | 0.1 | -2.6 | -3.4 | 1.2 | 2.7
FGF22 binding | i | . | i | i | . | i
T cruzi repl | -9.9 | -15.6 | -5.2 | -18.7 | -13.2 | -10.8
Ecoli rRNA inh | 9.1 | . | 13.1 | 0.4 | -15.7 | 0.0
Ecoli rRNA inh OD600 | 1.9 | . | 16.9 | 1.4 | -13.4 | 5.9
Ecoli rRNA inh RFP | -0.4 | . | 1.0 | -1.0 | -2.2 | -2.4

#19 COc1ccc(N2CCN(c3nc(-c4cccs4)nc4ccccc34)CC2)cc1
#20 CN(C)c1ccc(NC(=O)C2C3C=CC(C3)C2C(=O)O)cc1 (stereo not given)
#21 C[C@H](CO)N1C[C@H](C)[C@@H](CN(C)S(=O)(=O)c2cn(C)cn2)Oc2ccc(NC(=O)NC3CCCCC3)cc2C1=O
#22 CCOC(=O)c1c(C)[nH]c(C(=O)CC(=O)OC)c1C
#23 O=C(c1cccc(S(=O)(=O)N2CCN(c3ccc(F)cc3)CC2)c1)N1CCN(c2ccccc2O)CC1
#24 Cn1c(NCc2c(O)ccc3ccccc23)nc2ccccc21
Compound | 19 | 20 | 21 | 22 | 23 | 24
AF4-AF9 inh | 9.2 | 29.3* | 0.8&-0.4 | 0.0 | -4.3 | .
UCH37 DUB inh | -2.9 | -0.1 | 1.0 | 2.4 | 4.0 | -0.9
Bfl-1 A1 inh | 0.5 | -0.9 | 0.2 | 0.5 | . | 0.2
Ecoli growth | 0.757 | 0.666 | 0.669 | 0.658 | 0.716 | 0.609
Beta apoptosis | 4.9 | 27.9 | -2.8 | 4.2 | . | -7.5
FGF22 binding | i | i | i | i | i | .
T cruzi repl | . | 41.0 | . | -10.8 | . | -4.6
Ecoli rRNA inh | 2.5 | 0.7 | -2.0&6.1 | -0.6 | -3.5 | .
Ecoli rRNA inh OD600 | 8.2 | 7.7 | 6.3&16.4 | -1.2 | -13.3 | .
Ecoli rRNA inh RFP | 23.8 | 7.2 | -0.4&0.2 | -0.8 | 0.1 | .

#25 Cc1oc(-c2ccc(Cl)cc2)nc1CS(=O)CC(=O)NC(C)c1ccccc1 (stereo not given)
#26 CC(CCc1ccccc1)NC(=O)COC(=O)c1cccc(N(C)C)c1 (stereo not given)
#27 CCNC(=O)/C(=C\c1ccc2c(c1)OCO2)NC(=O)c1ccc(Br)cc1
#28 COc1cc(NS(=O)(=O)c2ccc(C)c(C)c2)c(OC)cc1Cl
#29 C/C(CC1(O)C(=O)Nc2ccccc21)=N\O (stereo not given)
Compound | 25 | 26 | 27 | 28 | 29
AF4-AF9 inh | -3.6 | -1.4 | . | . | .
UCH37 DUB inh | 2.7 | -46.6 | 3.2 | 1.6 | .
Bfl-1 A1 inh | 1.1 | -1.3 | 0.4 | 1.3 | 0.1
Ecoli growth | 0.684 | 0.673 | 0.735 | 0.688 | .
Beta apoptosis | -8.0 | -7.3 | 2.9 | -4.7 | -6.3
FGF22 binding | i | i | . | . | .
T cruzi repl | 5.7 | 12.9 | 1.3 | -0.6 | 11.3
Ecoli rRNA inh | -6.0 | 2.2 | . | . | 15.7
Ecoli rRNA inh OD600 | -8.4 | -26.0 | . | . | 5.1
Ecoli rRNA inh RFP | 4.9 | 3.3 | . | . | 1.2

9 entries from above, reformatted.
The line under a structure holds: AF4-AF9 inh, UCH37 DUB inh, Bfl-1 A1 inh, Ecoli growth, Beta apoptosis, FGF22 binding, T cruzi repl, Ecoli rRNA inh, Ecoli rRNA inh OD600, Ecoli rRNA inh RFP
19: COc1ccc(N2CCN(c3nc(-c4cccs4)nc4ccccc34)CC2)cc1
→ 9.2, -2.9, 0.5, 0.757, 4.9, i, ., 2.5, 8.2, 23.8
20: CN(C)c1ccc(NC(=O)C2C3C=CC(C3)C2C(=O)O)cc1 (stereo not given)
→ 29.3*, -0.1, -0.9, 0.666, 27.9, i, 41.0, 0.7, 7.7, 7.2
21: C[C@H](CO)N1C[C@H](C)[C@@H](CN(C)S(=O)(=O)c2cn(C)cn2)Oc2ccc(NC(=O)NC3CCCCC3)cc2C1=O
→ 0.8&-0.4, 1.0, 0.2, 0.669, -2.8, i, ., -2.0&6.1, 6.3&16.4, -0.4&0.2
22: CCOC(=O)c1c(C)[nH]c(C(=O)CC(=O)OC)c1C
→ 0.0, 2.4, 0.5, 0.658, 4.2, i, -10.8, -0.6, -1.2, -0.8
23: O=C(c1cccc(S(=O)(=O)N2CCN(c3ccc(F)cc3)CC2)c1)N1CCN(c2ccccc2O)CC1
→ -4.3, 4.0, ., 0.716, ., i, ., -3.5, -13.3, 0.1
24: Cn1c(NCc2c(O)ccc3ccccc23)nc2ccccc21
→ ., -0.9, 0.2, 0.609, -7.5, ., -4.6, ., ., .
25: Cc1oc(-c2ccc(Cl)cc2)nc1CS(=O)CC(=O)NC(C)c1ccccc1 (stereo not given)
→ -3.6, 2.7, 1.1, 0.684, -8.0, i, 5.7, -6.0, -8.4, 4.9
26: CC(CCc1ccccc1)NC(=O)COC(=O)c1cccc(N(C)C)c1 (stereo not given)
→ -1.4, -46.6, -1.3, 0.673, -7.3, i, 12.9, 2.2, -26.0, 3.3
27: CCNC(=O)/C(=C\c1ccc2c(c1)OCO2)NC(=O)c1ccc(Br)cc1
→ ., 3.2, 0.4, 0.735, 2.9, ., 1.3, ., ., .

The list is partial; rates above refer to the full screens.
